# Screening data from PubChem BioAssay.
# VACV Venus inh: inhibitors of vaccinia virus (Venus reporter); 0.46% of 330,000 active; Vaccinia virus Venus reporter expression, fluorescence; AID 720580; Potency, µM (highest dose often 36.5 µM), without a hit: at the top dose activity change, negative = inhibition, hits mostly inhibitors; active means well fitted inhibition curve with a large enough effect; inconclusive means small, poorly fitted or top-dose-only effect; inactive means no such curve, though single readings can be large or run the other way; tested in A549 cells; further: nearly all actives have a fitted effect of over 30% in size; inactives centre near -10
# Vaccinia mCherry: inhibitors of vaccinia virus infection (mCherry reporter signal); Vaccinia virus mCherry reporter infection, fluorescence; about a quarter of the inactives have no number; Potency, µM (highest dose often 36.5 µM), without a hit: at the top dose activity change, negative = inhibition, actives largely listed as inhibitors; AID 720579; 0.63% of 310,000 active; active = well fitted inhibition curve with a large enough effect; inconclusive = small, poorly fitted or top-dose-only effect; inactive = no such curve, though single readings can be large or run the other way; tested in A549 cells; further: nearly all actives have a fitted effect of over 35% in size; inactives centre near -10
# * = called active by the depositor; i = inactive; ? = inconclusive; · = not tested or not shown; & = joins results of further samples; [ ] = another dose, or the depositor's remark. On the % scale 0 is the no-effect control and ±100 the full control effect; potency means the concentration at half of the fitted maximal effect.
# Second line of a record – Vaccinia mCherry	VACV Venus inh
> Cc1ccc(OCC(=O)NCCCNC(=O)c2ccccn2)cc1C
 : -11%	1%
> CC1CCCC(C)N1/N=C/c1cccc(Br)c1 (stereo not drawn)
 : -14%	-6%
> NC(=S)N/N=C/c1cc([N+](=O)[O-])ccc1OCCOc1ccccc1
 : ·	-26%
> CC(C)C(NC(=O)CN(c1cccc(F)c1)S(C)(=O)=O)C(C)C
 : -13%	1%
> COc1ccc(N=Cc2ccc(N(CCC#N)CCC#N)cc2)cc1
 : i	-11%
> O=C(C1CCC(=O)N1Cc1cccs1)N1CCOCC1 (stereo not drawn)
 : -30%	-11%
> C[C@@H]1CCCCO[C@H](CN(C)C(=O)Nc2ccc3c(c2)OCO3)[C@H](C)CN([C@@H](C)CO)C(=O)c2cc(NS(=O)(=O)c3ccc(Cl)cc3)ccc2O1
 : -10%	?
> CN1CCN(c2ccc(CNS(=O)(=O)c3ccc(Cl)cc3)cc2)CC1
 : i[7.34 µM]	1%[7.34 µM]
> COC(=O)C1=C(c2cccc(C#N)c2)C[C@@H]2CC[C@H]1N2C(=O)N1CCCC1
 : i	-6%
> Cc1ccc2cccc(NC(=O)c3cccc4ccccc34)c2n1
 : -24%	-18%
> COc1ccc(S(=O)(=O)N2CCOC23CCN(S(=O)(=O)c2cc(C)ccc2C)CC3)cc1
 : -20%	-18%
> O=C(NCC1CCOCC1)C1Cc2c(-c3ccccc3Oc3ccccc3)ccnc2O1 (stereo not drawn)
 : -5%	-8%
> COc1ccc(/C=C/C(=O)Nc2ccc(NC(C)=O)cc2)cc1S(=O)(=O)N1CCOCC1
 : -7%	-9%
> CC1CCCCC1n1c(=S)[nH]c2ccccc2c1=O (stereo not drawn)
 : 0%	-20%
> C/C(=N/NC(=O)c1cccc(C)c1)c1c(O)cc(C)oc1=O
 : -10%	-3%
> CC1(C(=O)NS(=O)(=O)c2ccccc2)CCN1C(=O)C1(c2ccc(Cl)cc2)CCC1 (stereo not drawn)
 : i	-3%
> COC(=O)c1scc(C)c1S(=O)(=O)Nc1ccc(C)cc1
 : -28%	?
> O=C(NC1CCCC1)C1CCN(C(=O)c2cccc(Cl)c2)CC1
 : -2%	5%
> Cc1ccc(C)c(NS(=O)(=O)c2ccccc2C)c1
 : -6%	-3%
> C[C@H](NC(=O)c1nc[nH]c1C(=O)N[C@@H](CCCCNC(=O)OC(C)(C)C)C(=O)OC(C)(C)C)C(=O)OCc1ccccc1
 : i	-5%
> COc1cc(SC)ccc1C(=O)OCC(=O)NC1CC1
 : -13%	0%
> C#CCSc1nc2[nH]ncc2c(=O)[nH]1
 : -9%	-18%
> Cc1cc(N2CCN(C3CCCCC3)CC2)n2nc(C)nc2n1
 : -4%	9%
> CCCN(C(=O)C1CC(=O)N(c2ccccc2C(C)CC)C1)C1CCS(=O)(=O)C1 (stereo not drawn)
 : -13%	-4%
> CCC(C(=O)NC1CCCC1)N(C(=O)Cn1nnc(-c2ccc(C)cc2)n1)C1CCCC1 (stereo not drawn)
 : ·	-11%
> CCC1CCc2nc3sc(C(=O)Nc4ccc(C)cc4)c(N)c3cc2C1 (stereo not drawn)
 : -14%	-15%
> Cc1cc(S(=O)(=O)n2cnc3ccccc32)c(C)cc1Cl
 : ·	?
> CS(=O)(=O)N1CCN(c2ncnc3c2cnn3-c2ccccc2)CC1
 : -8%	-24%
> COc1ccccc1N1CCN(C(=O)CN2C(=O)COc3ccc(S(=O)(=O)N4CCCC4)cc32)CC1
 : -9%	6%
> COc1cc(/C=C2/NC(=O)NC2=O)cc(Br)c1OCc1cccc(C(=O)O)c1
 : i	-7%
> Cc1cc(C)c(S(=O)(=O)N(C)CC(=O)NCCCn2ccnc2)c(C)c1
 : -6%	-4%
> CS(=O)(=O)c1ccc(C(=O)N(CCc2ccccc2)Cc2ccccc2)cc1
 : -8%	-10%
> Cc1ccc2c(C)c(C(=O)N3CCN(Cc4ccc5c(c4)OCO5)CC3)oc2c1C
 : -29%	-24%
> CCCc1nc(NCc2ccncc2)c2nnn(Cc3ccccc3F)c2n1
 : -15%	?
> Oc1ccc(NC(=S)N=Nc2c(O)[nH]c3ccccc23)cc1
 : ?	-19%
> CC(=O)Nc1ccc(S(=O)(=O)N2CCC(c3nnc(-c4ccc(C)cc4)o3)CC2)cc1
 : -7%	-15%&11%
> Cn1c(SCC(=O)c2ccc3c(c2)NC(=O)CO3)nc2ccccc21
 : -2%	-11%
> CCCCNS(=O)(=O)c1ccc2nc(-c3cccnc3)cc(C(=O)NCCCOCC)c2c1
 : i	-9%
> Cc1ccc(-c2nc(CCNC(=O)C(=O)Nc3ccc(C)c(Cl)c3)cs2)cc1
 : -5%	-7%
> Cc1cc(-c2ccccc2)nc(N/N=C/c2ccc([N+](=O)[O-])cc2)n1
 : -18%	-25%
> CCC(=O)Nc1cccc(Br)c1
 : ·	-10%
> O=C(NCc1ccccc1)C1CCCN(S(=O)(=O)c2cccnc2)C1 (stereo not drawn)
 : ?	-30%
> CCOC(=O)N/N=C/c1c(C)c(C(=O)c2ccc(F)cc2)n2ccccc12
 : i	-10%
> Cc1ccc2nc(N(Cc3cccnc3)C(=O)c3ccc4c(c3)OCCO4)sc2c1
 : -8%[7.34 µM]	-11%[7.34 µM]
> CCN(CC)c1nn2c(=O)c(C(=O)NCCc3cccc(C)c3)cnc2s1
 : -18%	-12%
> CCN(CC)S(=O)(=O)c1ccc2c(c1)N(CC(=O)Nc1ccc(F)cc1)C(=O)CO2
 : -9%	-8%
> CC(CCc1ccccc1)NC(=O)COc1ccc(S(=O)(=O)N2CCOCC2)cc1[N+](=O)[O-] (stereo not drawn)
 : -14%	-30%
> COc1ccc(CNC(=O)c2coc(=O)c3ccccc23)cc1
 : i	-16%
> COC(=O)C[C@H]1c2cc(F)ccc2S(=O)(=O)N1C1CC1
 : -10%	-7%
> COCCN(Cc1cc2cc3c(cc2nc1Cl)OCO3)C(=O)Nc1ccccc1OC
 : -18%	-2%

# Going on with the list:
# Second line of a record – Vaccinia mCherry	VACV Venus inh
> Cn1cccc1CC(=O)N/N=C\c1cccs1
 : -17%	-7%
> O=C(O)c1cc(-c2ccc(/C=N/N3C(=O)C4C5C=CC(C6CC56)C4C3=O)o2)ccc1Cl (stereo not drawn)
 : -6%	-2%
> Cc1ccc(/C=C/C(=O)NC(=S)Nc2ccc(S(=O)(=O)Nc3cc(C)on3)cc2)cc1
 : -8%	-1%
> CC(=O)c1ccc(OCc2c(-c3ccccc3)nnn2CC(=O)NS(=O)(=O)c2ccc(C)cc2)cc1
 : -9%	-4%
> CCc1cc2c(=O)c(-c3nc4ccccc4[nH]3)coc2c(CN2CCCCC2)c1O
 : 12%[7.34 µM]	0%[7.34 µM]
> CCC1CN(C(=O)N2CCC(C(=O)NCCCc3ccccc3)CC2)c2cc(C)ccc2O1 (stereo not drawn)
 : -2%	-11%
> C/C(N)=C(/C#N)C(=O)CSc1nnc(-c2ccccc2Br)o1
 : ·	-28%
> Cc1c(C#N)c2ncn(Cc3ccccc3)c(=O)c2n1-c1ccccc1
 : ·	-12%
> C=CCNC(=O)c1cc(Cl)ccn1
 : -1%	-10%
> CCCC/C(O)=C1\C(=O)CCCC1=NCCc1c(C)[nH]c2ccccc12
 : -17%	-21%
> CC1=Nc2cc(C(=O)O)ccc2Sc2ccc(C)cc21
 : -14%	-12%
> COc1ccc(S(=O)(=O)N(C)C[C@@H]2OCCCC[C@@H](C)Oc3ccc(NS(=O)(=O)c4cccs4)cc3C(=O)N([C@H](C)CO)C[C@@H]2C)cc1
 : -15%	-22%
> O=C(NC1CCCCCC1)C(Cc1ccccc1)n1cccc1 (stereo not drawn)
 : i	-15%
> COc1ccc(N2CCN(S(=O)(=O)CCNC(=O)c3ccc(C(F)(F)F)cc3)CC2)cc1
 : -16%	-11%
> COc1ccc([C@H]2CC(=O)C=C(c3ccc(O)cc3)C2)cc1OC
 : -14%	-20%
> COc1cc(C(=O)N2CCC(C(=O)Nc3cccc(C(C)=O)c3)CC2)cc(OC)c1OC
 : ·	-1%
> Cc1nc(NC(=O)c2ccccc2)sc1Cc1ccc2c(c1)OCO2
 : i	-13%
> CCCSc1nc(O)c(C2OC(=O)c3c2ccc(OC)c3OC)c(=O)n1-c1ccccc1 (stereo not drawn)
 : ·	-6%
> CC(=O)N1c2ccccc2C2CCCC[C@@H]21 (stereo partly drawn)
 : i	-7%
> Cc1cc(Br)cn2c(Cc3ccccc3)c(-c3ccc(F)cc3)nc12
 : i	-1%
> COc1ccc(NC(=O)c2cccc3c(-c4ccc(OC)cc4C)coc23)cc1
 : -10%	-12%
> COc1ccc(-c2nn(-c3ccccc3)cc2N)cc1
 : -9%	-10%
> Cc1ccc(NC(=O)Cc2c(O)c3ccccc3[nH]c2=O)c(C)c1
 : -11%	2%
> O=C(O)CNS(=O)(=O)c1ccc(C2CCCCC2)cc1
 : -9%	4%
> CCCCC(=O)NC(=S)NNC(=O)c1ccc(OC)cc1
 : ?	-19%
> Cc1ccccc1Cn1cnc2c(cnn2C(C)(C)C)c1=O
 : ·	-19%
> CCOC(=O)c1c(NC(=O)COc2ccc(CC)cc2)sc2c1CCCC2
 : 0%	-5%
> Cc1ccc[n+](CC(=O)/C=C2\N(C)c3ccccc3C2(C)C)c1
 : ?	-27%
> CN(C)c1ccc(C(CNC(=O)c2ccccc2Br)c2c[nH]c3ccccc23)cc1 (stereo not drawn)
 : i	-7%
> CCOC(=O)CN1C(=O)C(=O)N(Cc2cccc(C)c2)C1=O
 : i	-1%
> CC(=O)Nc1cc2ccc(OC(C)=O)cc2oc1=O
 : -5%	-6%
> Cc1ccc(OCCN2CCOCC2)cc1C
 : -11%	-6%
> COC(=O)C1=C(C)N(Cc2ccccc2)C(=O)N[C@H]1c1ccco1
 : i	-10%
> O=C(C1CCN(c2nc3ccc(Br)cc3s2)CC1)N1CCC2(CC1)OCCO2
 : ·	-27%
> Cc1cccc(C(=O)NCCc2nc3ccccc3n2CCC(C)C)c1
 : 2%	5%
> CCOC(=O)N1CCN(C(=O)CCCCn2c(=S)[nH]c3ccsc3c2=O)CC1
 : -2%	-29%
> COc1ccc(C)cc1NC(=O)CN1CCCC1c1ccc2c(c1)OCCCO2 (stereo not drawn)
 : ?	?
> CC1=NN=C(c2ccc(N)cc2)c2cc3c(cc2C1)OCO3
 : 20%	-10%&3%
> COc1ccc(-n2c(=O)c3ccc(C(=O)NCc4ccc(C)cc4)cc3n(CC(=O)Nc3ccc(C)cc3)c2=O)cc1
 : -30%	?
> O=C(CSc1nncs1)Nc1cc(S(=O)(=O)N2CCOCC2)ccc1N1CCCC1
 : -6%	-3%

# Retrieved one by one from the list above, 5 records:
# Second line of a record – Vaccinia mCherry	VACV Venus inh
> CCCSc1nc(O)c(C2OC(=O)c3c2ccc(OC)c3OC)c(=O)n1-c1ccccc1 (stereo not drawn)
 : ·	-6%
> O=C(C1CCN(c2nc3ccc(Br)cc3s2)CC1)N1CCC2(CC1)OCCO2
 : ·	-27%
> Cc1ccc(NC(=O)Cc2c(O)c3ccccc3[nH]c2=O)c(C)c1
 : -11%	2%
> Cc1ccc(/C=C/C(=O)NC(=S)Nc2ccc(S(=O)(=O)Nc3cc(C)on3)cc2)cc1
 : -8%	-1%
> CC(=O)c1ccc(OCc2c(-c3ccccc3)nnn2CC(=O)NS(=O)(=O)c2ccc(C)cc2)cc1
 : -9%	-4%

# Looked up above:
# COC(=O)C1=C(C)N(Cc2ccccc2)C(=O)N[C@H]1c1ccco1 in VACV Venus inh is listed with -10%
# O=C(C1CCN(c2nc3ccc(Br)cc3s2)CC1)N1CCC2(CC1)OCCO2 in VACV Venus inh is listed with -27%
# CC1=NN=C(c2ccc(N)cc2)c2cc3c(cc2C1)OCO3 in VACV Venus inh is listed with -10%&3%

# (listing goes on)
# Second line of a record – Vaccinia mCherry	VACV Venus inh
> Cc1noc(C)c1S(=O)(=O)N1CCCC(C(=O)NCC2CCCO2)C1 (stereo not drawn)
 : -14%	-4%
> CN(C)/C=N/c1nc2nccc(-c3cccc(Cl)c3)n2n1
 : -8%	-9%
> O=C(N[C@@H]1CC[C@@H](CCNC(=O)C2CCOCC2)O[C@@H]1CO)c1ccncc1
 : -7%	-3%
> Cc1ccc2c(c1)[C@@H]1[C@H](CO2)[C@H](c2ccccc2)[C@@]2(C)C(=O)N[C@H](C)C(=O)N12
 : i	-4%
> CCN(c1ccccc1)S(=O)(=O)c1ccc(C(=O)Nc2cc(C)ccn2)cc1
 : 0%	-10%
> O=C(OCC(O)CO)c1ccccc1Nc1ccnc2cc(Cl)ccc12 (stereo not drawn)
 : -24%&-26%	-16%&-22%
> O=C(CN1C(=O)CCC1=O)Nc1nc(-c2ccc(Oc3ccccc3)cc2)cs1
 : -1%	-18%
> CCCCNc1nnc(SCC(=O)N2CCN(S(=O)(=O)c3ccc4ccccc4c3)CC2)s1
 : ?	?
> COc1cccc(CNC(=O)C2CCCCN2S(=O)(=O)c2ccc(F)cc2)c1 (stereo not drawn)
 : -14%	4%
> CC(=O)c1nn(-c2cccc(Cl)c2)cc1C(=O)c1ccco1
 : ·	?
> CCOC(=O)C1(CCc2ccccc2)CCN(Cc2ccco2)CC1
 : -1%	-2%
> Cc1nn(C)c2c1c(C(F)(F)F)cc(=O)n2C(C)C(=O)NCc1ccc(Cl)cc1 (stereo not drawn)
 : -12%	-4%
> COCC(C)NC(=O)COc1ccc(Cl)cc1Cl (stereo not drawn)
 : -20%	-15%
> Cc1cc(S(=O)(=O)N2CCOCC2)ccc1OCC(=O)Nc1ccccc1C(F)(F)F
 : 4%	5%
> COc1ccc(CN(C)C(=O)Cn2ccc(N)nc2=O)cc1OC
 : -12%	3%

# Entries of single compounds as entered above. Screens in order: Vaccinia mCherry | VACV Venus inh
# Results for `C=CCNC(=O)c1cc(Cl)ccn1` → -1% | -10%
# Results for `Cc1ccc(OCC(=O)NCCCNC(=O)c2ccccn2)cc1C` → -11% | 1%
